GIV-Gai inh: inhibitors of GIV peptide binding to Galpha-i3, primary screen, biochemical, fluorescence polarization, FITC-GIV GBA peptide, rat Galphai3. 90 min; hits give low values; scaled: aluminum fluoride 0%, vehicle 100%. percent of control (FP), % (test concentration not listed). actives 0.42% (n = 210,000);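 active means replicate mean at 85% of control or lower, very high polarization wells dropped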;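 further: wells of about 15 µL received 100 nL stock; the first replicate is given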
Target sequence (P08753 whole entry, looked up): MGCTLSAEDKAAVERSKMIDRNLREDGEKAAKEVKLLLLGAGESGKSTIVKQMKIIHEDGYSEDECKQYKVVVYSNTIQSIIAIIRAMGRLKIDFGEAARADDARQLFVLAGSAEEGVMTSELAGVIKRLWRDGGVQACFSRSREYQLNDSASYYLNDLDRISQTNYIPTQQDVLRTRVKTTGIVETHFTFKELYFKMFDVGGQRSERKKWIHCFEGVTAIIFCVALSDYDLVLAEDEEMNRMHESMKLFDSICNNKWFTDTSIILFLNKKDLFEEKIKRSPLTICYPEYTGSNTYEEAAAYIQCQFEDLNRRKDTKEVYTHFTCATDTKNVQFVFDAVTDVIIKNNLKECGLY
HCMV UL50-53 inh: inhibitors of HCMV UL50-UL53 interaction, biochemical, HTRF. HCMV UL50-UL53 nuclear egress complex (human cytomegalovirus). normalized percent inhibition. actives 0.15% (n = 190,000). inhibition, % (no concentration beside the values). AID 1918969, 2023;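 active means both replicates at 50% or more, plus weaker picks with an unusually low signal ratio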;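 further: stock transfer was 100 nL into about 20 µL; 0% = negative control wells and 100% = wells with untagged competitor protein; inactives centre near -12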
Sa growth 42C: S. aureus growth inhibition at 42 and 30 °C, primary screen, LtaS inhibitor project, RN4220, two temperatures | OD600, 20 h, 42 °C; hits give low values | relative growth, % (no concentration beside the values) | actives 0.53% (n = 170,000) | AID 720641, 2013;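 active means growth at 42 °C up to 50% and 20 or more points under that at 30 °C, or under 10% at both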;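 further: 300 nL library stock went into each well; scaled to the means of positive and negative controls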
Sa growth 42C second temp: also measured in Sa growth 42C; calls as there; relative growth, %; measured here: growth at 30 °C;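 optical density after 20 h as mean of two plates; 100% = untreated growth and lower means inhibition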
* = called active by the depositor; x = no result given; & = joins results of further samples.

SMILES	GIV-Gai inh	HCMV UL50-53 inh	Sa growth 42C	Sa growth 42C second temp
CC1Cc2cc(C(=O)O)ccc2O1 (stereo not given)	100	-3	99	86
Cc1c2cn[nH]c(=O)c2c(C)n1Cc1cccs1	103	-15	95	80
Cc1cc(OCC(=O)Oc2ccc(-c3nnco3)cc2)ccc1C(C)C	x	-4	106	101
CCC(Sc1nc2ccccc2c2nc(C)nn12)C(=O)Nc1cc(OC)ccc1OC (stereo not given)	100	x	124	94
CCC(C(=O)O)c1ccc(N2Cc3ccccc3C2=O)cc1 (stereo not given)	x	-24	104	83
CC(C)(C)NC(=O)CSc1nnc(NC2=NS(=O)(=O)c3ccccc32)s1	99	-8	96	99
CCCN(C(=O)COc1cc(=O)n(CC)c2ccccc12)c1cccc(C)c1	101	-18	x	x
CCOC(=O)c1c[nH]n2c(=O)c3c(nc12)CCC3	97	26	77	84
CCc1ccc2[nH]c3sc(C)nc3c2c1	106	-23	95	77
CN1C(=O)c2cc(NC(=O)c3ccc(Cl)cc3)ccc2N2CCN=C12	103	-18	x	x
CC(C)OC(=O)CSc1nc2ccccc2s1	108	x	102	89
N#Cc1cccc(COC(=O)c2ccccc2-n2cnnn2)c1	x	-12	93	90
CN1C(=O)/C(=C\c2c(O)c3ccccc3n(C)c2=O)C(=O)c2ccccc21	x	-9	89	64
CC(C)(C)c1ccc(-c2nnc(-c3ccccc3N)o2)cc1	107	-2	116	94
COC(=O)c1ccc(CO/N=C(\C)c2ccc(Cl)cc2Cl)o1	99	-35	93	98
COC(=O)c1cc2occc2n1CC(=O)Nc1ccc(N(C)C)cc1	107	-8	112	85
Cc1ccc(Cc2nc3ccccc3nc2SCC(=O)N2CCCc3ccccc32)cc1	109	x	89	93
COc1ccc2cc(C#N)c(N3CCN(Cc4nnnn4CCC(C)C)CC3)nc2c1	95	-15	105	83
N/C(=N\S(=O)(=O)Cc1ccccc1)Nc1nc2ccccc2o1	x	-11	86	95
Cc1ccc(-n2c(=O)c3c(c4cc(C)ccc4n3C)n(CC(N)=O)c2=O)cc1	98	x	89	96
CCN1CCN(CCCNC(=O)c2cc3c(s2)-c2ccccc2OC3)CC1	103	-63	119	94
Cc1ccc2oc(-c3ccccc3)nc2c1	103	2	98	84
Cc1sc(NC(=O)c2ccccc2)c(C(Nc2ccccn2)c2ccncc2)c1C (stereo not given)	106	-32	x	x
CC(C)Oc1ccc(C(=O)N2CCC(c3nc4ccccc4s3)CC2)cc1	101	-6	95	54
CCOC(=O)CSC1=Nc2ccccc2C2=NC(CC(=O)N3CCN(c4ccccc4)CC3)C(=O)N12 (stereo not given)	109	-4	113	98

(further entries)
SMILES	GIV-Gai inh	HCMV UL50-53 inh	Sa growth 42C	Sa growth 42C second temp
COc1ccc(S(=O)(=O)NCc2ccc(C(=O)NCCN3CCCCCC3)cc2)cc1	92	4	99	101
CC(=O)NNc1ncnc2ccccc12	x	-13	104	96
CC(C)NC(=O)c1cc2cc3ccc(Cl)cc3nc2o1	103	x	116	96
CN1CCN(C(=O)/C(=C/c2cccs2)NC(=O)c2cccs2)CC1	103	-69	85	86
Cc1ccc(N2C(=O)C3C4C=CC(CNC(=S)Nc5ccc(Br)cc5)(O4)C3C2=O)cc1 (stereo not given)	96	x	76	75
NC(=O)COc1cccc(/C=C2/CC/C(=C\c3cccc(OCC(N)=O)c3)C2=O)c1	98	x	92	82
COc1cccc(CNC(=O)c2ccc(CS(=O)Cc3ccc(C)cc3)o2)c1 (stereo not given)	107	-24	96	90
O=C(COC(=O)Cc1cccc2ccccc12)NCc1ccc(F)cc1	x	23	101	109
CC(=O)N/C(=N/c1nc(C)cc(C)n1)Nc1cc(C)cc(C)c1	96	x	107	80
O=C(Nc1cc(C(=O)N2CCOCC2)cc(C(=O)N2CCOCC2)c1)c1cc(F)c(F)cc1Cl	x	13	101	100
Cc1nn(C(C)C)c(C)c1S(=O)(=O)N1CCN(C(=O)c2ccsc2)CC1	108	-6	x	x
CCOC(=O)N1CCN(C(=O)/C=C2\Sc3ccccc3NC2=O)CC1	104	-40	97	91
Cc1ccc(-n2c(=O)c3c4c(sc3n(CC(=O)Nc3cccc(Cl)c3)c2=O)CCCCC4)cc1C	108	-29	96	91
CC(=O)N1CCc2c(sc3c2c(=O)n(-c2ccc(C)cc2)c(=O)n3Cc2ccccc2C)C1	105	1	98	96
COc1ccc(C2c3c(n(C)c4ccccc34)C(=O)N2CC(=O)NCc2cccs2)cc1 (stereo not given)	107	-12	100	81
O=C(NCC1(c2ccccc2)CCOCC1)C1COc2ccccc2O1 (stereo not given)	100	-30	91	76
Oc1ccccc1N=CC=Nc1ccccc1O	111	18	76	66
CC1(C)CC(=O)C2=C(C1)Nc1onc(C(C)(C)C)c1C2c1ccc(O)c(O)c1 (stereo not given)	105	-6	x	x
CCNC(=O)c1sc(C)nc1N	x	-11	109	82
CCN(CC)C(=O)c1sc2c(c1C)c(=O)n(-c1ccc(C)c(C)c1)c(=O)n2Cc1cc(=O)n2ccccc2n1	100	x	94	85
CC(C)NC(=O)C1c2ccccc2C(=O)N2CCc3ccccc3C12 (stereo not given)	111	4	90	45
Nc1c(C(=O)CSc2nnc(-c3ccc4c(c3)OCO4)o2)c(=O)[nH]c(=O)n1Cc1ccccc1	x	-26	69	93
CC(=O)N1CCOc2cc(S(=O)(=O)N3CCC(C)CC3)c(Cl)cc21	114	-9	x	x
COc1ccc(C2CC(c3ccc(C)cc3)=NN2C(=O)CCCC(=O)O)cc1OC (stereo not given)	97	-36	x	x
O=C(Nc1c(-c2ccc(F)cc2)nc2ccccn12)c1c(F)cccc1F	102	-13	x	x

Reformatted in markdown: entries from further up.
| SMILES | GIV-Gai inh | HCMV UL50-53 inh | Sa growth 42C | Sa growth 42C second temp |
| --- | --- | --- | --- | --- |
| CN1CCN(C(=O)/C(=C/c2cccs2)NC(=O)c2cccs2)CC1 | 103 | -69 | 85 | 86 |
| Cc1ccc(N2C(=O)C3C4C=CC(CNC(=S)Nc5ccc(Br)cc5)(O4)C3C2=O)cc1 (stereo not given) | 96 | x | 76 | 75 |
| NC(=O)COc1cccc(/C=C2/CC/C(=C\c3cccc(OCC(N)=O)c3)C2=O)c1 | 98 | x | 92 | 82 |

Profiles as entered above. Order of values: GIV-Gai inh	HCMV UL50-53 inh	Sa growth 42C	Sa growth 42C second temp
Cc1ccc(N2C(=O)C3C4C=CC(CNC(=S)Nc5ccc(Br)cc5)(O4)C3C2=O)cc1 (stereo not given) across the screens: 96	x	76	75
O=C(Nc1c(-c2ccc(F)cc2)nc2ccccn12)c1c(F)cccc1F across the screens: 102	-13	x	x
CC(=O)NNc1ncnc2ccccc12 across the screens: x	-13	104	96

(continued)
SMILES	GIV-Gai inh	HCMV UL50-53 inh	Sa growth 42C	Sa growth 42C second temp
O=C(NCCn1cc(SCc2ccc(F)cc2)c2ccccc21)c1cccs1	102	-11	73	83
O=C(Nc1ccc(F)c(Cl)c1)c1cccnc1Sc1cccs1	103	-6	91	89
COCCn1c(=NC(=O)c2ccc3c(c2)OCCO3)sc2cc(C(=O)OC)ccc21	97	x	79	91
O=S(=O)(c1cccs1)N1CCCN(S(=O)(=O)c2cccs2)CC1	104	11	68	93
O=C(CN1CCCN(Cc2ccc(F)cc2Cl)C1=O)NCc1cccnc1	107	-12	93	97
COc1ccccc1N1CCN(C(=S)NC(C)(C)C)CC1	101	-11	95	91
CCC1=CC(c2c(O)c3ccccc3n(C)c2=O)=NC(C)CN1 (stereo not given)	x	2	104	93
Cc1coc2c(C)c3oc(=O)c(CCC(=O)NCCc4ccccc4)c(C)c3cc12	101	-13	101	80
CCOc1ccc2nc(NC(=O)C(C)C)sc2c1	x	-14&-2	123&113	71&82
N#CCSc1nc2ccccc2c(=O)n1CCn1c(SCC#N)nc2ccccc2c1=O	101	x	90	92
COc1cc(/C=C2/C(=O)NC(=O)N(c3ccccc3)C2=O)ccc1OCC(=O)O	104	-3	x	x
Cc1ccc2c(c1)/C(=N/O)CC(O)(C(F)(F)F)O2 (stereo not given)	106	-19	114	85
Cc1oc(-c2cccc(Cl)c2)nc1Cn1ncn2c(cc3ccccc32)c1=O	103	-1	105	87
CCOc1ccc(Cn2c(CNS(=O)(=O)c3ccc([N+](=O)[O-])cc3)nc3cccnc32)cc1	108	x	115	86
Cc1ccc(CNC(=O)COc2ccc3c(c2)C(=O)CC2(CCCCC2)O3)cc1	106	x	113	94
O=c1[nH]c2ncnn2c(-c2ccc(Cl)cc2)c1-c1ccc(F)cc1	x	-13	104	93
Cc1cc2c(=O)n(C)c(SCC(N)=O)nc2s1	105	4	89	99
Cc1ccc(NC(=O)CN(C)S(=O)(=O)c2cccc3cccnc23)c(C)c1	101	-35	100	83
CCOc1ccc(OCC)c(Nc2nc3ccccc3c3nnc(C)n23)c1	103	x	80	85
CCN(C(=O)c1sc2cc(OC)ccc2c1Cl)c1ccccc1	107	-9	121	93
COc1ccc(C2C3=C(CCCC3=O)Nc3[nH]c(=O)[nH]c(=O)c32)cc1 (stereo not given)	103	2	93	89
CN(C)S(=O)(=O)Nc1ccc(N2CCC(C(N)=O)(N3CCCCC3)CC2)c(C(=O)O)c1	106	14	x	x
NC(=O)COC(=O)CC12CC3CC(CC(C3)C1)C2	x	-7	107	88
COC(=O)c1sc(SCCOC(=O)c2ccccc2Cl)c2c1CC(C)(C)CC2=O	97	-15	92	86
O=C(O)C1=CC(=C(c2ccc(O)c(C(=O)O)c2)c2ccc(O)c(C(=O)O)c2)C=CC1=O	-19*	123*	x	x

Another view of some results above:
canonical_smiles | GIV-Gai inh | HCMV UL50-53 inh | Sa growth 42C | Sa growth 42C second temp
Cc1oc(-c2cccc(Cl)c2)nc1Cn1ncn2c(cc3ccccc32)c1=O | 103 | -1 | 105 | 87
CCOc1ccc(Cn2c(CNS(=O)(=O)c3ccc([N+](=O)[O-])cc3)nc3cccnc32)cc1 | 108 | x | 115 | 86

Later entries:
SMILES	GIV-Gai inh	HCMV UL50-53 inh	Sa growth 42C	Sa growth 42C second temp
CC1(C)CC(=O)C=C(NNc2ccccn2)C1	100	-7	102	97
Nc1cc(N)nc(SCC(=O)N2CCc3ccccc32)n1	106	-36	104	96
CC(C)Cc1ccc(C(C)C(=O)Nc2nccs2)cc1 (stereo not given)	100	-7	94	92
Cn1cc(CCCC(=O)NCc2ccccc2)c2ccccc21	113	11	117	93
CCCC1=C(C(=O)OC)C(c2ccccc2)n2c(nc3ccccc32)N1 (stereo not given)	99	-2	114	85
CCOC(=O)C1=C(N)OC2=C(C(=O)CC(C)(C)C2)C1c1ccccc1 (stereo not given)	112	-12	137	107
CCOC(=O)c1ccccc1NC(=O)CSc1ncc(S(=O)(=O)c2ccc(C)c(Cl)c2)c(=O)[nH]1	104	-1	x	x
Cc1nc(C(=O)NCC(=O)c2ccccc2)c(C(F)(F)F)o1	101	-27	93	93
CC1CN(C(=O)Nc2cccc(C(F)(F)F)c2)CC(C)O1 (stereo not given)	x	-19	87	51

From PubChem BioAssay
